# EPAC2 ant val: validation of human EPAC2 antagonists. Q8WZA2. Potency, µM (top dose mostly 112 µM), for the others: at the highest dose activity, negative = inhibition, hits mostly inhibitors. 1.7% of 16,000 active. EPAC2 Rap1B BODIPY-GDP exchange, fluorescence. AID 1645886; active = well fitted inhibition curve with a large enough effect; inconclusive = small, poorly fitted or top-dose-only effect; inactive = no such curve, though single readings can be large or run the other way;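 also: 100% = activation by cAMP agonist control; nearly all actives have a fitted effect of over 40% in size; the record reuses the description of the EPAC1 agonist screen; inactives centre near -10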
# Target sequence (Q8WZA2 whole entry, looked up): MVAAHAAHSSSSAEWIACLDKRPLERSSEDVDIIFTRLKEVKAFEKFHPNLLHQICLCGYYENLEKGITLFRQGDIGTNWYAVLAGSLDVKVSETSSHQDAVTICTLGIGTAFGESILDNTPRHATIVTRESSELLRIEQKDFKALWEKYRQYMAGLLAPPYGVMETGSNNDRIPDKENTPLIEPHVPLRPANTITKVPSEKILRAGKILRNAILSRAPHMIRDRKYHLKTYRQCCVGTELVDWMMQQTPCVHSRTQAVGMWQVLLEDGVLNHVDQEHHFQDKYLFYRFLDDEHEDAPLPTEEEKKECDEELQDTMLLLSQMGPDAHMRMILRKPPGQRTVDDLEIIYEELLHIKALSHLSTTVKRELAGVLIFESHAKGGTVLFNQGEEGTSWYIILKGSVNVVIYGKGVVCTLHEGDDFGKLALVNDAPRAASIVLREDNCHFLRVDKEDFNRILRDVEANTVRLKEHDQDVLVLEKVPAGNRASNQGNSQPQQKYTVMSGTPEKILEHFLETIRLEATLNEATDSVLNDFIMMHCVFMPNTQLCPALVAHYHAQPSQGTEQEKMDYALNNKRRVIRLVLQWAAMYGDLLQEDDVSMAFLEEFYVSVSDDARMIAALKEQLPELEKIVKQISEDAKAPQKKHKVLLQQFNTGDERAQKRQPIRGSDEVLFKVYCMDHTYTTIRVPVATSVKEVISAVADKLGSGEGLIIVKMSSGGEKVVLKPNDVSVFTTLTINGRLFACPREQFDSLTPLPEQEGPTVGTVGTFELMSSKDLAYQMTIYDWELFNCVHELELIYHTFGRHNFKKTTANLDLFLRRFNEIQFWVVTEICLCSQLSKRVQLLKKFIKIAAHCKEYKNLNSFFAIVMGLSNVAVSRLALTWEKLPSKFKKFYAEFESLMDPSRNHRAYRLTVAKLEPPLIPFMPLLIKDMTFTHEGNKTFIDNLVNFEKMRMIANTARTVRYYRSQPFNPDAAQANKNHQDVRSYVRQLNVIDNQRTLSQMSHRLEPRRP
#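 Fluorescent exchange read-out: 100 nM EPAC2 with 250 nM RAP1B–BODIPY-GDP and 50 uM GDP; BODIPY-GDP release lowers fluorescence. Read at 480/540 nm every 5 min for 30 min at room temperature; normalized to 6.5 mM cAMP.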
# Numbers without * were called inactive; ? = inconclusive; & = joins results of further samples; [ ] = another dose, or the depositor's remark. Potency is read from the fitted curve at half-maximal effect.
# The first 7 records as a preview:
compound | EPAC2 ant val
COC(=O)c1cc(=O)c(O)c2c(O)c(O)ccc2c1 | -10%
COc1ccc(NS(=O)(=O)c2ccc(N)cc2)nn1 | -5%
O=C(CCCN1CCN2CCCC2C1)c1ccc(F)cc1 (centres undefined) | -17%
CN1CCN(c2nc(-c3ccccc3C(F)(F)F)nc3ccccc23)CC1 | -9%
COc1ccc([N+](=O)[O-])c2c1CCN2C(=O)CC[C@H](N)C(=O)O | -20%
CC(C)(C)CC(C)(C)c1ccc(O)c(Cc2ccc(Cl)cc2Cl)c1 | ?
CC(CN(C)C)C(C)(O)Cc1ccc(Cl)cc1 (centres undefined) | 0%

# The list itself, previewed entries included:
compound | EPAC2 ant val
COC(=O)c1cc(=O)c(O)c2c(O)c(O)ccc2c1 | -10%
COc1ccc(NS(=O)(=O)c2ccc(N)cc2)nn1 | -5%
O=C(CCCN1CCN2CCCC2C1)c1ccc(F)cc1 (centres undefined) | -17%
CN1CCN(c2nc(-c3ccccc3C(F)(F)F)nc3ccccc23)CC1 | -9%
COc1ccc([N+](=O)[O-])c2c1CCN2C(=O)CC[C@H](N)C(=O)O | -20%
CC(C)(C)CC(C)(C)c1ccc(O)c(Cc2ccc(Cl)cc2Cl)c1 | ?
CC(CN(C)C)C(C)(O)Cc1ccc(Cl)cc1 (centres undefined) | 0%
CCC1(C2CCN(C(=O)c3ccccc3C)CC2)NC(=O)N(CCc2scnc2C)C1=O (centres undefined) | -24%
O=c1ccn([C@@H]2O[C@H](COP(=O)(O)O)[C@@H](O)[C@H]2O)c(=O)[nH]1 | 26%
Cc1ncoc1C(=O)NCc1nc(-c2cccc(NC(=O)c3ccccn3)c2)oc1C | -4%
COc1cc(-c2cc(C)c3cccc(OC)c3n2)cc2c1OCCN(C(=O)Cn1nc(C)cc1C)C2 | -27%
CCCCNc1ccc(C(=O)OCCN(CC)CC)cc1 | 14%
CC[C@H](C)CCCCC(=O)N[C@@H](CCN)C(=O)N[C@H](C(=O)N[C@@H](CCN)C(=O)N[C@H]1CCNC(=O)[C@H]([C@@H](C)O)NC(=O)[C@H](CCN)NC(=O)[C@H](CCN)NC(=O)[C@H](CC(C)C)NC(=O)[C@@H](CC(C)C)NC(=O)[C@H](CCN)NC1=O)[C@@H](C)O | -7%
O.O=C([O-])CC([S-])C(=O)[O-].[Au+].[Na+].[Na+] (centres undefined) | 0%
O=C(O)C[C@H]1c2ccccc2S(=O)(=O)N1C1CCCCC1 | -4%
C[C@@H]1CCC(=O)N(C[C@@H](C)CC#N)CC1 | 15%
C/C(=C\c1ccc(C(=O)O)cc1)c1ccc2c(c1)C(C)(C)CCC2(C)C | -5%
O=C(c1ccc(Cl)cc1)N1CCN(c2ccc([N+](=O)[O-])c3ncccc23)CC1 | ?
CCOC(=O)[C@H](CCc1ccccc1)N[C@@H](C)C(=O)N1CC2(C[C@H]1C(=O)O)SCCS2 | -3%
COc1ccc(CN2CCC(=O)N([C@H](CO)c3ccccc3)CC2)cc1OC | -11%
COc1ccc(C(=O)N2CCC3(CCCN(Cc4ccccc4)C3)CC2)cc1 | -26%
N=C(N)c1ccc(N)cc1 | 4%
CCCCCCCC/C=C\CCCCCCCC(=O)NCCc1ccc(O)c(O)c1 | ?
CS(=O)(=O)c1ccc(-c2cccc3c2OC(CNC(=O)c2ccnc(Cl)c2)C3)cc1 (centres undefined) | ?
COc1cc(NS(=O)(=O)c2ccc(N)cc2)ncn1 | -19%[56.6 µM]
Nc1ccc(N=Nc2ccccc2)c(N)n1 | -9%&-50%
O=C(O)C[C@H]1c2cc(F)ccc2S(=O)(=O)N1C1CCCC1 | -16%
CN1CCN(c2ncc3nc(-c4cc(F)cc(F)c4)c(=O)n(-c4ccccc4)c3n2)CC1 | 2%
CC[C@@H](C)[C@H](NS(=O)(=O)c1cccc2ccccc12)C(=O)N[C@H](C=O)Cc1c[nH]c2ccccc12 | ?
COc1ccc([C@@H](C)C(=O)c2ccc(O)cc2O)cc1 | ?
CSc1ccc(-c2ccc3c(c2)CC(CNC(=O)Cn2nc(C)nc2C)O3)cc1 (centres undefined) | -3%
CCOC(CN1CCN(CC(C)C(=O)c2ccccc2)CC1)c1ccccc1 (centres undefined) | 10%
O=C(CN1Cc2ccccc2OC(c2ccccc2)C1)NCc1cccnc1 (centres undefined) | -35%
CSc1ncccc1C(=O)NCC1Cc2cc(-c3cnccn3)ccc2O1 (centres undefined) | 4%
COC(=O)c1ccc(C(=O)NCC2Cc3cc(F)cc(-c4cncnc4)c3O2)cc1 (centres undefined) | 2.5µM*
O=c1c(-c2ccc(F)cc2)nc2cnc(N3CCNCC3)nc2n1Cc1ccc(F)cc1 | -23%
COc1ccc(CN2[C@@H](CC(=O)O)c3ccc(C(F)(F)F)cc3S2(=O)=O)cc1 | ?
CNc1ncncc1-c1ccccc1OC | -5%
CCn1c(-c2ccccc2F)nc2cc(C(=O)N3CCCC(CO)C3)cc(NC(C)=O)c21 (centres undefined) | 1%
CC(NCCC(c1ccccc1)c1ccccc1)c1ccccc1 (centres undefined) | ?
Cc1cc(C(=O)Nc2ccccc2-c2nc(CNC(=O)c3cscn3)c(C)o2)c(C)o1 | 4%
CS(=O)(=O)N1CCC2(CCN(c3ccccc3)CC2)CC1 | -18%
CC(=O)N1CCCC1C(=O)O (centres undefined) | -11%
COc1cc(-c2cnc3ccccc3c2)cc2c1OCCN(C(=O)CCn1nc(C)cc1C)C2 | -24%
O=c1c(-c2ccc(Cl)cc2)nc2cnc(N3CCNCC3)nc2n1CCc1ccccc1 | -11%
CC(=O)NCCNc1nc(-c2ccccc2Cl)nc2ccccc12 | -13%
N[C@@H](Cc1cc(I)c(Oc2ccc(O)cc2)c(I)c1)C(=O)O | -27%
COc1cc(/C=C/C(=O)O)cc(OC)c1OC | -14%
COC(=O)N1CCC2(CCN(C(=O)NC(C)C)CC2)CC1 | -14%
CC(O)(COc1ccccc1)c1ccc2c(c1)CN(Cc1cn[nH]c1-c1ccc(F)cc1)CCO2 (centres undefined) | ?
CN1CCN(c2ncc3nc(-c4ccccc4)c(=O)n(C)c3n2)CC1 | -19%
COc1cccc(-c2ccc3ncnc(NCc4cccs4)c3c2)c1 | -9%
COc1cc(-c2nc(C)cnc2C)cc2c1OCCN(C(=O)Cn1nc(-c3ccccc3)c3ccccc3c1=O)C2 | -5%
COc1ccc(OC)c(-c2ccnc(-n3ncc(C(=O)N4CCN(CCO)CC4)c3C3CC3)n2)c1 | -10%
[N-]=[N+]=Nc1ccc(C(=O)CSC[C@H](NC(=O)CC[C@H](N)C(=O)O)C(=O)NCC(=O)O)cc1 | ?
COc1ccccc1OCC(O)CO (centres undefined) | -17%
COC(=O)C1=C(C)NC(C)=C(C(=O)O[C@@H]2CCCN(Cc3ccccc3)C2)[C@@H]1c1cccc([N+](=O)[O-])c1 | -25%
Cc1noc(C)c1-c1nc(NCc2ccccc2)c2ccccc2n1 | -18%
CCCCCCCC/C=C\CCCCCCCCOC[C@H](COP(=O)([O-])OCC[N+](C)(C)C)OC(C)=O | -10%[11.4 µM]
O=c1cc(-c2ccccc2O)oc2cc(O)ccc12 | -3%

# The results go on.
compound | EPAC2 ant val
O=c1[nH]c(=O)n([C@@H]2O[C@H](CO)[C@@H](O)[C@H]2O)cc1F | -14%
COc1cc(=O)n2c(c1C(=O)NC(C)c1ccco1)CCN(C(=O)c1cn3ccc(C)cc3n1)CC2 (centres undefined) | ?
Cc1cc(CC(=O)O)c(C)n1-c1ccc(Cl)cc1 | -23%
CC(=O)CC/C=C(\C)CC/C=C(\C)CC/C=C(\C)CCC=C(C)C | 6%
O=C(c1csnn1)N1CCC2(CCCN(c3ccccn3)C2)CC1 | ?
Cc1ccccc1CN1[C@H](C)[C@H](c2ccccc2)OCCS1(=O)=O | ?
CC1COC2=C1C(=O)C(=O)c1c2ccc2c1CCCC2(C)C (centres undefined) | -23%
O=C(O)c1ccccc1Nc1ccccc1 | -11%
CCN(CCCc1ccccc1)CCCc1ccccc1 | -10%[56.6 µM]
CN(C)Cc1ccccc1-c1nccc(N(C)Cc2ccco2)n1 | -10%
O=C(O)C1CCCNC1 (centres undefined) | -12%&3%
c1ccc2c(c1)Sc1ccccc1N2CCN1CCCC1 | ?
CC(C)=O | -20%
COc1ccc2[nH]cc(CCNc3cc(-c4cccnc4)ncn3)c2c1 | -28%
COc1ccccc1CN1CC[C@@]2(CCCN(C(=O)c3cccc(F)c3)C2)C1 | -15%
COc1ccc(-c2nc(C(=O)N3CCN(C)CC3)sc2-c2ccc(OC)cc2)cc1 | ?
O=C1c2cccc(O)c2C(=O)c2c(O)cccc21 | -17%&-4%
CO[C@]12C[C@@H](COC(=O)c3cncc(Br)c3)CN(C)[C@@H]1Cc1cn(C)c3cccc2c13 | 13%&-14%
CSC(N)=NCCCC(N)C(=O)O (centres undefined) | -9%
COc1ccc(NC(=O)N2CCC3(CC2)CCN(C(=O)c2cccc(F)c2)CC3)cc1 | -15%
CC(C)NC(=O)N1CCC2(CC1)CCN(C(=O)c1cnccn1)CC2 | -22%
O=c1c(O)c(Br)ccc2c(Br)c(O)c(O)c(O)c12 | 7%
COc1ccc(NC(=O)N2CCCC3(CCN(C(=O)c4ccncc4)CC3)C2)cc1 | -15%
C[C@@H]1C[C@H]2[C@@H]3CCC4=CC(=O)C=C[C@]4(C)[C@@]3(F)[C@@H](O)C[C@]2(C)[C@H]1C(=O)CO | -4%
C[C@@H]1CCC(=O)N(CC[C@H](Sc2ccccc2)c2ccccc2)CC1 | ?
CN1CCN(c2ncc3ncc(=O)n(Cc4cccs4)c3n2)CC1 | ?
Brc1cc(Br)c[n+](CCc2ccccc2)c1 | -19%
OC(c1cccnc1)c1ccc2c(c1)CN(Cc1cn(-c3ccccc3)nc1-c1ccccc1)CCO2 (centres undefined) | ?
Cc1cccc(C(=O)NCc2nc(-c3cccc(NC(=O)c4ccoc4C)c3)oc2C)n1 | -14%
COc1ccc(-c2coc3cc(OC(C)=O)cc(OC(C)=O)c3c2=O)cc1 | -17%
Cc1cnc2ccccc2c1C | 3%
COc1cccc(Nc2ncc3nc(-c4cc(F)cc(F)c4)c(=O)n(C4CC4)c3n2)c1 | -6%
COc1cc(CNCc2cc3cc(C)ccc3nc2-c2ccc(F)cc2)cc(OC)c1OC | -10%
COc1ccc(CCN(C)Cc2cc(-c3cncnc3)ccc2O)cc1OC | 9%
O=P(O)(O)C(O)(Cc1cccnc1)P(=O)(O)O | -6%
CCCc1nc2c(C)cc(-c3nc4ccccc4n3C)cc2n1Cc1ccc(-c2ccccc2C(=O)O)cc1 | -15%

# Rewritten with each value named: part of the list above
compound: COc1cccc(Nc2ncc3nc(-c4cc(F)cc(F)c4)c(=O)n(C4CC4)c3n2)c1
  EPAC2 ant val = -6%

compound: COc1cc(CNCc2cc3cc(C)ccc3nc2-c2ccc(F)cc2)cc(OC)c1OC
  EPAC2 ant val = -10%

# (more compounds)
compound | EPAC2 ant val
C[C@H]1O[C@@H](n2cc(F)c(=O)[nH]c2=O)[C@H](O)[C@@H]1O | 16%
O=S1(=O)CCO[C@H]2Cc3ccccc3[C@H]2N1Cc1ccc(Cl)cc1 | ?
COc1cc(-c2ccc(C(F)(F)F)cn2)cc2c1OCCN(S(=O)(=O)C[C@]13CC[C@H](CC1=O)C3(C)C)C2 | ?
O=c1c(-c2cc(F)cc(F)c2)nc2cnc(N3CCOCC3)nc2n1-c1ccccc1 | -9%
CN(C)C(=O)c1ccc(-c2ccc3ncnc(NC4CCNCC4)c3c2)cc1 | -9%
COc1ccc2[nH]cc(CCNc3nc(-c4ccc(C(=O)N(C)C)cc4)nc4ccccc34)c2c1 | -13%
CC1CC[C@@]23CCC4(C)[C@@]5(C)CCC6C(C)(C)C(O)CC[C@@]6(C)C5C=C[C@@]4(OC2=O)C3C1C (some centres undefined) | -6%
COc1ccccc1-c1ccnc(-n2ncc(C(=O)N3CCN(C4CCCC4)CC3)c2-c2ccco2)n1 | 9%
Cc1ncc(CO)c(C=O)c1O | ?
OC[C@H]1NC[C@H](O)[C@@H](O)[C@H]1O | -4%
CCn1c2ccccc2c2cc(CN3CCOc4ccc(C(O)c5cccnc5)cc4C3)ccc21 (centres undefined) | -23%
CCCC1O[C@@H]2C[C@H]3[C@@H]4CCC5=CC(=O)C=C[C@]5(C)[C@H]4[C@@H](O)C[C@]3(C)[C@]2(C(=O)CO)O1 (some centres undefined) | -11%&9%
CCNC(=O)[C@H]1O[C@H](n2cnc3c(N)nc(NCCc4ccc(CCC(=O)O)cc4)nc32)[C@@H](O)[C@@H]1O | -19%
Cc1cnc(SCc2ccccn2)nc1C1CCCN(C(=O)c2ccc3c(c2)OCCO3)C1 (centres undefined) | -1%
COc1ccccc1-c1ccc(C(=O)N2CCC(N3CCc4ccccc4C3)CC2)c(N(C)CC2COCCO2)n1 (centres undefined) | -17%
COC(=O)c1cn([C@H]2C[C@@H](C(=O)N3CCCCCC3)N(Cc3ccsc3)C2)nn1 | -21%
COC(=O)C1CCN(Cc2ccc3c(c2)CN(C(=O)C(C)N2CCOCC2)CCO3)CC1 (centres undefined) | -11%
COc1cc(OC)c(/C=C/c2ccc3ccccc3n2)c(OC)c1 | -8%
CNc1nc(-c2ccc(C(=O)N(C)C)cc2)nc2ccccc12 | -19%
CCCN(CCC)c1ccc(/C=C/c2ccnc3ccccc23)cc1 | 262%[activator]

# High-throughput results deposited in PubChem by National Center for Advancing Translational Sciences (NCATS).

# An excerpt; rates above refer to the full screens.
